Cruzain inh Det: qHTS Assay for Promiscuous and Specific Inhibitors of Cruzain (with detergent) | purified cruzain, Z-FR-AMC fluorescence, 0.01% Triton | Potency, µM, inactives show max response, negative = inhibition, hits mostly inhibitors | actives 0.43% (n = 200,000) | AID 1478, 2009; active = well fitted curve in the direction sought with a large enough effect; inconclusive = small, poorly fitted or top-dose-only effect, or another doubt; inactive = no such curve, though single readings can be large; an effect the other way counts as inactive or inconclusive;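 note: plate controls were neutral wells for no effect and buffer without enzyme for full effect; nearly all actives have a fitted effect of over 40% in size; top concentration of the series not given in the record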
Target sequence (P25779 123-467 limits assumed): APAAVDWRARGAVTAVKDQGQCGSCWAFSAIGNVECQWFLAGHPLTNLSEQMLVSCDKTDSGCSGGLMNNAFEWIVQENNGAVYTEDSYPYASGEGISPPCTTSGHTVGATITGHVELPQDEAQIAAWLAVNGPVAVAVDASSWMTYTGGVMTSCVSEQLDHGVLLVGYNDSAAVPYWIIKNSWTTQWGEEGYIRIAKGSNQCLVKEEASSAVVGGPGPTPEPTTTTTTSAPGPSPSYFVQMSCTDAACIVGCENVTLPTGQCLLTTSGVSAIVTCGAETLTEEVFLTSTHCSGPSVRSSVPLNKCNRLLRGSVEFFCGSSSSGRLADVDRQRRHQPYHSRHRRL
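Detergent-containing run (0.01% Triton X-100) in acetate buffer pH 5.5 with 5 mM DTT: enzyme at 1.5 nM final, 15 min compound preincubation at room temperature, then 2 uM Z-FR-AMC substrate. Activity taken as 60 s fluorescence increase at 360/450 nm.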
SARS PLP yeast: qHTS of Yeast-based Assay for SARS-CoV PLP | S. cerevisiae expressing SARS-CoV PLpro, growth rescue; control for the full effect not named in the record | Potency, µM (doses to about 32.9 µM), for the others: top-dose activity, positive = growth rescue | actives 0.19% (n = 330,000) | AID 485353, 2010; note: 0% is about no effect; nearly all actives have a fitted effect of over 55% in size; growth read by luminescence after 48 h
Marburg entry inh: qHTS for inhibitors of binding or entry into cells for Marburg Virus; Potency, µM (series often up to 37.8 µM), without a hit: at the highest dose activity change, negative = inhibition, usual class: inhibitors; actives 1.8% (n = 300,000); Marburg virus pseudotyped entry inhibition, cell reporter; control for the full effect not named in the record; about a third of the inactives were read at about 46 µM; active = well fitted inhibition curve with a large enough effect; inconclusive = small, poorly fitted or top-dose-only effect, or effect the other way; inactive = flat fitted curve, though single readings scatter; tested in HEK293 cells; about a fifth of its hits are not listed in these tables; note: % is set by controls: 0 for no effect and ±100 for the full control effect; luciferase read-out
NS1 inh: qHTS Assay for Inhibitors of Influenza NS1 Protein Function; actives 0.4% (n = 270,000); Potency, µM (top dose mostly 46.1 µM), for the others: at the highest dose activity, positive = more growth; AID 2326, 2010; S. cerevisiae slowed by influenza A NS1, growth recovery by OD600; note: actives are rising curves; nearly all actives have a fitted effect of over 50% in size
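Recovery from NS1-induced slow growth read by OD600 in budding yeast switched to galactose assay medium (pH 6.0, -URA) at 1:100 dilution. Compound 23 nl per well; the matching strain lacking NS1 serves as control.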
Lassa entry inh: qHTS for Inhibitors of binding or entry into cells for Lassa Virus | Lassa virus pseudotype entry inhibition, cell reporter; control for the full effect not named in the record | Potency, µM (doses to about 37.9 µM), for inactives: at the highest dose activity change, negative = inhibition, actives largely listed as inhibitors | actives 1.2% (n = 300,000) | AID 540256, 2011; active means well fitted inhibition curve with a large enough effect; inconclusive means small, poorly fitted or top-dose-only effect, or effect the other way; inactive means flat fitted curve, though single readings scatter; tested in HEK293 cells; note: % is set by controls: 0 for no effect and ±100 for the full control effect; nearly all actives have a fitted effect of over 50% in size; luciferase read-out
Cruzain noTriton: qHTS Assay for Promiscuous and Specific Inhibitors of Cruzain (without detergent). Potency, µM, for the others: max response, negative = inhibition, usual class: inhibitors. Cruzipain (Trypanosoma cruzi), P25779. purified cruzain, Z-FR-AMC fluorescence, no detergent. actives 2.3% (n = 200,000); active = well fitted curve in the direction sought with a large enough effect; inconclusive = small, poorly fitted or top-dose-only effect, or another doubt; inactive = no such curve, though single readings can be large; an effect the other way counts as inactive or inconclusive;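 note: plate controls were enzyme without inhibitor for no effect and buffer without enzyme for full effect; nearly all actives have a fitted effect of over 40% in size; top concentration of the series not given in the record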
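Detergent-free condition (0.00005% Triton X-100) in acetate buffer pH 5.5 with DTT. 1.5 nM enzyme and compound were pre-mixed 15 min, then 2 uM Z-FR-AMC substrate added; reaction progress from fluorescence change between first and third reads (60 s).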
RE007 growth inh: qHTS Assay for Inhibitors of the HIV-1 protein Vpr. S. pombe RE007 Vpr strain, BacTiter-Glo ATP luminescence, 24 h; control for the full effect not named in the record. Potency, µM (highest dose often 92.2 µM), inactives show at the top dose activity change, negative = less growth. actives 0.21% (n = 360,000). AID 651644, 2012; active = well fitted falling curve with a large enough effect; inconclusive = small, poorly fitted or top-dose-only effect; inactive = no such curve, though single readings can be large or run the other way;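 note: % is set by controls: 0 for no effect and ±100 for the full control effect; nearly all actives have a fitted effect of over 50% in size; the assay follows cell death caused by Vpr and the record does not say whether a fall means rescue or toxicity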
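Fission yeast RE007 carrying one integrated HIV-1 vpr copy, seeded at OD 0.01 in PMG+AL medium with 23 nL pinned compound. Grown 24 h at 30 degrees; viability read by BacTiter-Glo luminescence after 5 min.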
2A StopGo: High Throughput Screening for Foot and Mouth Disease Virus Antivirals. human cells with a luciferase reporter of 2A StopGo recoding; control for the full effect not named in the record. Potency, µM (titrated, usually from 57.9 µM), for the others: at the top dose signal change, negative = less light. actives 1.2% (n = 410,000). AID 1159524, 2015; active = well fitted falling curve with a large enough effect; inconclusive = small, poorly fitted or top-dose-only effect; inactive = no such curve, though single readings can be large or run the other way; tested in HEK293T cells; note: % is set by controls: 0 for no effect and ±100 for the full control effect; nearly all actives have a fitted effect of over 45% in size; luciferase light after 4 h
* = called active by the depositor; ? = inconclusive; / = not tested or not shown; & = joins results of further samples; [ ] = dose if it differs, or a comment. Unless noted, calls come from the whole dose curve; as a rule, active means well fitted rising curve with a large enough effect; inconclusive means small, poorly fitted or top-dose-only effect; inactive means no such curve, though single readings can be large or run the other way. Potency is the fitted concentration of half-maximal effect.

No.	SMILES	Cruzain inh Det	SARS PLP yeast	Marburg entry inh	NS1 inh	Lassa entry inh	Cruzain noTriton	RE007 growth inh	2A StopGo
1	Cc1cccc(NC(=O)N(Cc2cc3cc(C)ccc3[nH]c2=O)CC2COCCO2)c1 (stereo unspecified)	/	2%	?	-7%	?	/	-3%	-27%
2	O=C(Cn1c(=O)n(Cc2ccccc2)c(=O)c2oc3ccccc3c21)Nc1ccc(Cl)cc1	-0.7%	/	/	/	-21%[46.1 µM]	-12%	/	-20%
3	COc1cc(CC(=O)Nc2ccc3nc(SC)sc3c2)cc(OC)c1OC	/	-1%	/	0%	/	/	6%	-17%
4	CCC1C(=O)CC(c2ccco2)NC1c1ccco1 (stereo unspecified)	-2.1%	3%	15%	2%	13%	-10%	-1%	-2%
5	Cc1cccc(-n2ncc3c(N4CCC(C)CC4)ncnc32)c1	-4.8%	-33%	/	-13%	/	4%	-22%	4%
6	CN(C)/C=C/C(=O)c1cnc2sccn2c1=O	/	-1%	-1%[46.1 µM]	4%	3%[46.1 µM]	/	-15%	13%
7	O=C1N=C(N2CCOCC2)CS1	5.7%	-2%	3%	-9%	-5%	-3%	4%	/
8	CC1CCN(S(=O)(=O)c2ccc(C(=O)Nc3ccccc3-c3nc4ccccc4[nH]3)cc2)CC1	-2.0%	15%	-10%	-5%	?	-20%	-5%	-21%
9	COc1ccc(-c2cnnn2-c2ccc([N+](=O)[O-])cc2)cc1	/	-4%	-16%[46.1 µM]	-9%	1%	/	9%	-5%
10	CCOC(=O)CCc1c(C)nc(SCCCn2c(=O)[nH]c3ccccc32)c(C#N)c1C	-3.2%	-2%	?	4%	?	24%	-13%	?
11	O=C(NCCCn1ccnc1)c1ccc2c(c1)OCCO2	2.4%	-6%	2%	-5%	22%	6%	-19%	12%
12	CC1=CN2C(=N)/C(=C/c3ccco3)C(=O)N=C2S1	-8.4%	-23%	?	4%	?	-9%	0%	-71%
13	Cn1c(N)c(C(=O)COC(=O)CCc2nc3ccccc3s2)c(=O)n(C)c1=O	/	0%	-5%[14.2 µM]	-3%	0%	/	-2%	0%
14	Cc1nn(-c2ccc(C(=O)O)cc2)c(C)c1Oc1ccccc1O	1.6%	1%	-1%	1%	10%	0%	-2%	/
15	CC(Oc1ccccc1)C(=O)Nc1ccc(S(=O)(=O)N2CCOCC2)cc1 (stereo unspecified)	-0.3%	2%	0%	-3%	18%	-4%	-10%	/
16	Cc1ccc2cc(CN(CCN3CCCC3)C(=O)Nc3ccc(F)cc3)c(=O)[nH]c2c1C	-0.6%	0%	?	?	-7%	?	-12%	0%
17	OCC1(CCc2ccccc2)CCCN(C/C=C/c2ccccc2)C1 (stereo unspecified)	/	0%	?	7%	-10%[46.1 µM]	/	-4%	3%
18	Cc1ccc(C)c(N2N=C(C(=O)NCCN3C(=O)S/C(=C\c4cccnc4)C3=O)CCC2=O)c1	/	-7%	0%[46.1 µM]	/	-4%	/	12%	?
19	Cc1ccc(S(=O)(=O)CCC(=O)O)cc1C	-1.2%	-11%	3%	8%	1%	1%	0%	61%[activator]
20	S=C(NC1CCCCC1)N1CCOCCOCCN(C(=S)NC2CCCCC2)CCOCCOCC1	/	-1%	?	9%	/	/	1%	-13%
21	Cc1ccccc1OCc1nc2ccccc2c(=O)n1/N=C/c1cn[nH]c1-c1ccc(Br)cc1	1.2%	6%	?	?	?	?	4%	?
22	O=C(O)c1ccc(S(=O)(=O)N2CCSCC2)cc1	/	8%	12%[46.1 µM]	0%	30%[46.1 µM]	/	2%	-15%
23	c1ccc(-n2nnnc2Cc2nnnn2-c2ccccc2)cc1	/	0%	11%[46.1 µM]	/	20%[46.1 µM]	/	13%	-12%
24	CCc1cccc(N(C(=O)c2csnn2)C(C(=O)NC2CCCCC2)c2ccncc2)c1 (stereo unspecified)	/	-1%	-1%[46.1 µM]	9%	16%[46.1 µM]	/	-4%	-11%
25	Nc1nc(Nc2cccc(C(F)(F)F)c2)nc(C(F)(F)F)n1	-9.4%	-14%	-10%[46.1 µM]	-6%	1%	-5%	-19%	0%
26	COc1ccc(NC(=O)CSc2nnc(C3CC3)n2-c2ccccc2)cc1	5.4%	1%	5%	-3%	3%	-4%	4%	9%
27	Clc1ccccc1CN1CCN(/N=C/C=C/c2ccco2)CC1	/	-2%	/	1%	/	/	-3%	55%[activator]
28	COc1ccc(NC(=O)c2ccccc2-c2ccccc2C(=O)O)cc1	/	4%	-20%	0%	0%	/	1%	4%
29	N#Cc1ccccc1Cn1c(=O)n(Cc2ccc(C(=O)NCc3ccco3)cc2)c(=O)c2ccccc21	-1.5%	-3%	0%&0%[46.1 µM]	11%	4%	?	7%	-13%
30	CCOC(=O)c1nc(C)nc(Sc2n[nH]c(-c3ccc(C(C)(C)C)cc3)n2)c1C	/	-2%	/	6%	/	/	-1%	1%
31	CCOC(=O)C1(Cc2ccccc2C(F)(F)F)CCN(C2CCC2)CC1	/	-1%	?	-3%	-3%	/	-28%	-11%
32	O=[N+]([O-])c1ccc(N(CCO)Cc2ccccc2)c([N+](=O)[O-])c1	/	2%	/	-7%	/	/	9%	19%
33	Cc1cc(OCC(=O)Nc2ccc(CCO)cc2)c2c(C)c(C)c(=O)oc2c1	/	0%	/	-3%	/	/	-1%	0%
34	CC(OC(=O)C1CC(=O)N(Cc2ccccc2)C1)C(=O)Nc1ccccc1[N+](=O)[O-] (stereo unspecified)	/	1%	8%	/	-16%	/	8%	-3%
35	CCOC(=O)N1CCN(Cc2nc(N)nc(Nc3ccc(OCC)cc3)n2)CC1	1.9%	-2%	15%	1%	-17%	3%	0%	-10%
36	CC(C)CN(C(=O)CSc1nncn1C)C1CCS(=O)(=O)C1 (stereo unspecified)	/	0%	-1%	/	-6%	/	-1%	-7%
37	COc1ccc(-c2nnc(S/C(=C/c3ccc(Cl)cc3)C(=O)O)o2)cc1	/	-4%	0%[46.1 µM]	/	-22%[46.1 µM]	/	1%	0%
38	Cc1ccc(N2C(=O)CSC23C(=O)N(CC(=O)Nc2ccccc2F)c2ccccc23)cc1C (stereo unspecified)	-3.6%	/	/	/	-26%[46.1 µM]	?	/	-13%
39	Fc1ccc(NCc2cn3ccccc3n2)cc1	-0.6%	0%	?	-5%	?	4%	2%	65%[activator]
40	O=C1OC(c2ccc(F)cc2)=N/C1=C\c1ccc(Br)o1	/	1%	15%[46.1 µM]	/	/	/	2%	0%

Laid out differently: entries from further up
[38] Cc1ccc(N2C(=O)CSC23C(=O)N(CC(=O)Nc2ccccc2F)c2ccccc23)cc1C (stereo unspecified)
[26] COc1ccc(NC(=O)CSc2nnc(C3CC3)n2-c2ccccc2)cc1
[6] CN(C)/C=C/C(=O)c1cnc2sccn2c1=O
[23] c1ccc(-n2nnnc2Cc2nnnn2-c2ccccc2)cc1

| assay / entry | 38 | 26 | 6 | 23 |
| --- | --- | --- | --- | --- |
| Cruzain inh Det | -3.6% | 5.4% | / | / |
| SARS PLP yeast | / | 1% | -1% | 0% |
| Marburg entry inh | / | 5% | -1%[46.1 µM] | 11%[46.1 µM] |
| NS1 inh | / | -3% | 4% | / |
| Lassa entry inh | -26%[46.1 µM] | 3% | 3%[46.1 µM] | 20%[46.1 µM] |
| Cruzain noTriton | ? | -4% | / | / |
| RE007 growth inh | / | 4% | -15% | 13% |
| 2A StopGo | -13% | 9% | 13% | -12% |

Later entries.
No.	SMILES	Cruzain inh Det	SARS PLP yeast	Marburg entry inh	NS1 inh	Lassa entry inh	Cruzain noTriton	RE007 growth inh	2A StopGo
41	O=C(COc1ccc2oc3c(c2c1)CCCC3)Nc1ccccn1	-2.1%	-8%	?	-21%	-23%	-16%	19%	32%[activator]
42	COC(=O)C(Cc1ccc(O)cc1)NC(=O)NC12CC3CC(CC(C3)C1)C2 (stereo unspecified)	/	-9%	?	1%	?	/	30%	9%
43	COCC(=O)Nc1nnc(-c2cccs2)s1	3.4%	0%	?	-54%	24%	3%	-17%	6%
44	Cc1c(Nc2nc(C(F)(F)F)nc3ccccc23)c(=O)n(-c2ccccc2)n1C	/	0%	/	4%	/	/	16%	-10%
45	CC(=O)c1ccc2c(c1)CC1(C2)Cc2cc3c(cc2C1)C(=O)CC3 (stereo unspecified)	/	/	?	/	?	/	3%	?
46	Cc1cc(C)c(S(=O)(=O)N2CCOC2CNC(=O)C(=O)NCCN(C)C)c(C)c1 (stereo unspecified)	/	3%	-20%	?	?	/	1%	-6%
47	CN1CCN(NC(=O)CN2C(=O)/C(=C/c3c(Cl)cccc3Cl)SC2=S)CC1	-8.6%	0%	12%	23%	23%	3%	9%	-30%
48	N/C(=N\OC(=O)c1cc(Cl)ccc1Cl)c1ccncc1	/	-1%	3%[46.1 µM]	2%	?	/	-15%	56%[activator]
49	COc1cccc(OC)c1C(=O)NCCOc1cc(C)cc(C)c1	/	-2%	-11%	-21%	17%	/	5%	?
50	CC(C)C(=O)N1CCN(c2ccccc2NC(=S)NC(=O)/C=C/c2ccco2)CC1	/	-1%	9%[46.1 µM]	/	-1%[46.1 µM]	/	5%	?

Complete entries, looked up by structure. Values in the order: Cruzain inh Det | SARS PLP yeast | Marburg entry inh | NS1 inh | Lassa entry inh | Cruzain noTriton | RE007 growth inh | 2A StopGo
Cc1ccccc1OCc1nc2ccccc2c(=O)n1/N=C/c1cn[nH]c1-c1ccc(Br)cc1 across the screens: 1.2% | 6% | ? | ? | ? | ? | 4% | ?
Cc1ccc(C)c(N2N=C(C(=O)NCCN3C(=O)S/C(=C\c4cccnc4)C3=O)CCC2=O)c1 across the screens: / | -7% | 0%[46.1 µM] | / | -4% | / | 12% | ?
Cc1cc(C)c(S(=O)(=O)N2CCOC2CNC(=O)C(=O)NCCN(C)C)c(C)c1 (stereo unspecified) across the screens: / | 3% | -20% | ? | ? | / | 1% | -6%

High-throughput results: PubChem, National Center for Advancing Translational Sciences (NCATS)
